T. gondii: Toxoplasma gondii ME49Luc growth in HeLa cells, luciferase, no IFN-y, primary screen (AID 1259421). 9.6% of 6,400 active. activity change, negative = inhibition, %. T. gondii ME49Luc in HeLa, luciferase, 72 h, no IFN-y; stronger effect = lower value; reference of the scale and settings of repeat entries not given here; many of its hits are not listed in these tables;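 active = activity change below -70%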;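 note: about 20 µM from a 10 mM stock diluted 500-fold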
* = called active by the depositor; & = joins results of further samples; ! = not confirmed by another sample. Only part of the results is shown (hit frequency here may not be typical).

SMILES	T. gondii
O=C1CCC[C@@H]2[C@@H]3CCC[N+]4([O-])CCC[C@H](CN12)[C@@H]34 (stereo not given in full)	-2
CCCCCCCCCCCCCCCC(=O)C1C(=O)OC(CO)C1=O (stereo not given)	7
COc1ccc2c(c1)C(=O)N(CCc1ccc(S(=O)(=O)NC(=O)NC3CCCCC3)cc1)C(=O)C2(C)C	0
C[C@@H]1O[C@@H](OC[C@H]2OC(Oc3c(-c4ccc(OCCO)c(OCCO)c4)oc4cc(OCCO)cc(O)c4c3=O)[C@H](O)[C@@H](O)[C@@H]2O)[C@H](O)[C@H](O)[C@H]1O (stereo not given in full)	1
NC(N)=Nc1ccc(Cl)cc1	-4&9
COc1cc(Nc2nc3ccccc3nc2NS(=O)(=O)c2ccc(NC(=O)c3ccc(C)c(OC)c3)cc2)cc(OC)c1	16
CN1C(=O)CC[C@H]1c1cccnc1	8&8
COc1cc(-c2coc3cc(OCc4ccccc4)c(OC)c(O)c3c2=O)cc(OCc2ccccc2)c1OC	-40
CO[C@H]1CC(O[C@@H]2/C(C)=C/C[C@@H]3C[C@@H](C[C@]4(CC[C@H](C)[C@@H](C5CCCCC5)O4)O3)OC(=O)[C@@H]3C=C(C)/C(=N/O)[C@H]4OC/C(=C\C=C\[C@@H]2C)[C@]43O)O[C@@H](C)C1O (stereo not given in full)	-41&-64
C1CCC2(CC1)CCNCC2	-1
Cc1cc2nc3c(=O)[nH]c(=O)nc-3n(CC(O)C(O)C(O)CO)c2cc1C (stereo not given)	-5&29
CCCCCCCCCCC(C)(C)C(=O)Nc1c(OC)cc(OC)cc1OC	17
CCCCOc1cc(C(=O)NCCN(CC)CC)c2ccccc2n1	6&14
CCCCCCCCCCCCCCCC(=O)OC(CC(=O)O)C[N+](C)(C)C (stereo not given)	-3
CCOc1ccc(S(=O)(=O)O)c2cccnc12	2
CC[N+](C)(C)c1cccc(O)c1	7
CC(CCCCC(=O)Nc1ccc(C(F)(F)F)cc1)NCCc1cnc[nH]1 (stereo not given)	-3&0
COc1ccc(CCC(=O)Nc2nc3ccc(Cl)cc3s2)cc1OC	27
CCCCCS(=O)(=O)CCCCCCCCCCn1c(-c2ccc(O)cc2)c(C)c2cc(O)ccc21	-77*!
COc1ccc2c(c1OC)C(=O)O[C@@H]2C1c2c(cc3c(c2OC)OCO3)CCN1C (stereo not given in full)	8
O[C@H]([C@H](O)[C@@H]1CO1)[C@H]1CO1	5
Nc1ccc(-c2ccc3ncc4ccc(=O)n(-c5cccc(C(F)(F)F)c5)c4c3c2)cn1	-77*
O=C(O)CC/C=C\CC[C@@H]1[C@@H](N2CCCCC2)[C@@H](O)C[C@@H]1OCc1ccc(-c2ccccc2)cc1	-5
O=C(Nc1ccccc1)N1CCN(c2nc(-c3ccccc3)ns2)CC1	-4
Cc1cc(C(C)Nc2ccccc2)c2nc(N3CCOCC3)cc(=O)n2c1 (stereo not given)	15

New compounds follow
SMILES	T. gondii
Cc1ccc(CNc2ncnc3ccc(-c4ccc(CO)o4)cc23)o1	-3
CC(NCCc1ccc(O)cc1)C(O)c1ccc(O)cc1 (stereo not given)	5&2
CO/N=C(/C(=O)NC1C(=O)N2C(C(=O)O)=C(C[N+]3(C)CCCC3)CSC12)c1csc(N)n1 (stereo not given)	6
Cc1cc2nc3c(=O)[nH]c(=O)nc-3n(C[C@H](O)[C@H](O)[C@H](O)CO)c2cc1C	17
C=C1C(=O)O[C@@H]2[C@H]3C(C)=CC[C@@]34O[C@@]4(C)CC[C@@H]12	19
COc1ccc2c(c1)CCC1C2CC[C@@]2(C)C1CC[C@@H]2O (stereo not given in full)	-9
CC1(C)S[C@@H]2[C@H](NC(=O)COc3ccccc3)C(=O)N2[C@H]1C(=O)O	-8&15
C/C=N/N(C)C=O	3
C[C@]12CC[C@H](O)CC1=CCC1C2CC[C@]2(C)C(n3cnc4ccccc43)=CCC12 (stereo not given in full)	-67
COc1cccc(-c2cc(=O)c3cc(OC)ccc3o2)c1	316
Cn1c(=O)c2c(ncn2CCOC(=O)C(C)(C)Oc2ccc(Cl)cc2)n(C)c1=O	7
COc1cc(CCC(C)=O)ccc1O	8
CC(=O)OCC(=O)[C@@]12OC3(CCCC3)O[C@@H]1CC1C3CCC4=CC(=O)C=C[C@]4(C)[C@@]3(F)[C@@H](O)C[C@@]12C (stereo not given in full)	-8&-7
Cc1ccc(S(N)(=O)=O)cc1	13
Clc1cccc(Nc2nnc(-c3ccccc3)c3ccccc23)c1	1&-2
O=C(c1ccc(F)cc1)N1CCC[C@H](c2nc(-c3ccc(F)cc3)no2)C1	14
C=C[C@@H](C1=CC(=O)C(OC)=C(OC)C1=O)c1ccccc1	-2
NC(=O)CCCCn1ccc(NC(N)=NCC(F)(F)F)n1	3&5
CCCc1c2oc(C(=O)O)cc(=O)c2cc2c(=O)cc(C(=O)O)n(CC)c12	19
O=C(O)CC/C=C\C[C@@H]1CO[C@H](c2ccccc2Cl)O[C@@H]1c1ccccc1O	15
Cc1[nH]c(/C=C2\C(=O)Nc3ccc(S(=O)(=O)N(C)c4cccc(Cl)c4)cc32)c(C)c1C(=O)N1CCN(C)CC1	-36
Cc1c(Cl)cccc1Nc1ccccc1C(=O)O	5&1
O=c1[nH]c(=O)n([C@H]2C[C@H](O)[C@@H](CO)O2)cc1I	8
Cn1cc(/C=C2\C(=O)Nc3cccnc32)c2ccccc21	18
NS(=O)(=O)c1cc2c(cc1Cl)NC(Cc1ccccc1)NS2(=O)=O (stereo not given)	15

More structures follow.
SMILES	T. gondii
COc1ccc2oc(-c3ccccc3)c(OC)c(=O)c2c1	202
COc1cc(OC)c(C(=O)CCCN2CCCC2)c(OC)c1	-6&7
Cn1cnc(=N)c2[nH]cnc21	11
C(=N\NC1=NCCN1)/c1c2ccccc2c(/C=N/NC2=NCCN2)c2ccccc12	-58
C[C@H](NC[C@H](O)CP(=O)(O)Cc1ccccc1)c1ccc(Cl)c(Cl)c1	14&14
CC1=CC(=O)C2C(C)(C)CCC[C@]2(C)[C@@]1(O)CCc1ccoc1 (stereo not given in full)	1
OCCN1C[C@H](O)[C@@H](O)[C@H](O)[C@H]1CO	-3
O=C(O)CN1CCN(CC(=O)O)CCN([C@H](CO)C(O)CO)CCN(CC(=O)O)CC1.[Gd] (stereo not given in full)	8
NC(=O)C1CCCc2c1[nH]c1ccc(Cl)cc21 (stereo not given)	3
Fc1cccc(/C=N/N=C/c2cccc(F)c2)c1	9&9
CCCCCCCCCCCCCCCC(=O)OC1C(SC)OC(C(NC(=O)C2CC(CCC)CN2C)C(C)Cl)C(O)C1O (stereo not given)	-9
CN(C)CCOC(=O)COc1ccc(Cl)cc1	7&4
CC(=O)OCCNC(=O)c1cccnc1	10
NC(=O)c1ccc2[nH]ccc2c1	5&-3
CC[C@H](CC#N)OC(=O)N[C@@H](C)c1cccc(NC(=O)Nc2ccc(-c3cnco3)c(OC)c2)c1	-82*
CCCCCCCC/C=C\CCCCCCCC(=O)N[C@@H](CO)Cc1ccc(O)cc1	5
COc1ccccc1N1CCN(CCn2c(=O)[nH]c3c([nH]c4ccccc43)c2=O)CC1	2&-2
O=c1cc(-c2ccccc2)oc2cc(O)ccc12	60
CCOC(=O)C1=C(N)Oc2ccc(Br)cc2[C@H]1[C@H](C#N)C(=O)OCC	-66
CC(C)(C=O)Cc1cc(C(C)(C)C)c(O)c(C(C)(C)C)c1	-2&-4
CC(=O)OCCN1C(=O)c2c(C)nc3ccc(S(=O)(=O)N4CCOCC4)cc3c2C1=O	-1
O=C(O)CSCC(=O)NC1CCSC1=O (stereo not given)	5
COC(=O)c1c(C)cc(O)cc1O	-4
C=C(C)[C@@H]1CC[C@]2(CO)CC[C@]3(C)[C@H](CC[C@@H]4[C@@]5(C)CC[C@H](O)C(C)(C)[C@@H]5CC[C@]43C)[C@@H]12	19
CCCCNc1cc(C(=O)O)cc(S(N)(=O)=O)c1Oc1ccccc1	0&6

(further entries)
SMILES	T. gondii
Cc1nc(NC(=O)N2CCC[C@H]2C(N)=O)sc1-c1csc(C(C)(C)C)n1	18
CC(C)c1ccccc1S(=O)(=O)c1cc(N)c2ncccc2c1[N+](=O)[O-]	-3&-44
CC1(C)CC[C@]2(C(=O)O)CC[C@]3(C)C(=CCC4[C@@]5(C)CC[C@H](O)[C@@](C)(CO)C5CC[C@]43C)C2C1 (stereo not given in full)	5
NCCNCCNCCNCCN	4
Cc1ccccc1N1CCN(S(=O)(=O)CC23CCC(C[C@@H]2NC(=O)[C@@H](N)CCS(C)(=O)=O)C3(C)C)CC1 (stereo not given in full)	6&1
Cn1cc(-c2cnn3c(N)c(Br)c([C@@H]4CCCNC4)nc23)cn1	-65
CN1CCN(S(=O)(=O)c2ccc(-c3cnc(N)c(C(=O)Nc4cccnc4)n3)cc2)CC1	-78*
C[C@H](CCC(=O)O)[C@H]1CC[C@H]2[C@@H]3CC[C@@H]4C[C@H](O)CC[C@]4(C)[C@H]3C[C@H](O)[C@]12C	3
COc1c(C)cnc(Cn2cnc3c(Cl)nc(N)nc32)c1C	-50
C[N@+]12CCCC[C@@H]1CCC(=C(c1cccs1)c1cccs1)C2	14
Cc1cc(/C=C/C#N)cc(C)c1Nc1ccnc(Nc2ccc(C#N)cc2)n1	18
Cc1[nH]c2ccccc2c1CCNC(=O)c1cccs1	10
COc1ccc(C2(O)CCC(N3CC[C@@H](NC(=O)CNC(=O)c4cccc(C(F)(F)F)c4)C3)CC2)cn1 (stereo not given in full)	5
Nc1cc(Cl)c(NC2=NCCN2)c(Cl)c1	7
CN(C)CC(c1ccc(O)cc1)C1(O)CCCCC1 (stereo not given)	11
CC1=CC(=O)CC(C)(C)[C@@]1(O)/C=C/C(C)=C\C(=O)O	0
c1cnc(SCc2cccnc2)nc1	15
COc1ccc(-c2cc(=O)c3c(O)c(OC)c(O)cc3o2)cc1OC	49
COc1cc(O)c2c(c1)C(=O)c1cc(C)cc(O)c1C2=O	3&-65
NC(=O)Cc1cccc(C(=O)c2ccccc2)c1N	14&17
N[C@@H](Cn1ccc(=O)n(Cc2ccccc2C(=O)O)c1=O)C(=O)O	10
CC(C)c1ccc(C(=O)NCCOc2ccc(C(=O)O)cc2)cc1	52
O=c1c(-c2ccc(O)cc2)coc2c(C3OC(CO)C(O)C(O)C3O)c(O)ccc12 (stereo not given)	7
CC(=O)Oc1ccccc1C(=O)O	16
O=c1cc(-c2ccccc2)oc2cc(O)c(O)c(O)c12	-66&-43

Other results
SMILES	T. gondii
Nc1nc(N)c2nc(-c3ccccc3)c(N)nc2n1	-19&-17
CNC(=O)c1cccc(NCC(=O)NCCc2ccc(OC)c(OC)c2)c1	17
C[C@]12C=CC(=O)C=C1CCC1C2[C@@H](O)C[C@@]2(C)C1CC[C@]2(O)C(=O)COC(=O)CCC(=O)O (stereo not given in full)	-6&-11
Cc1cc(C)nc(NS(=O)(=O)c2ccc(NC(=S)NC(=O)COc3ccc(Br)cc3Cl)cc2)n1	11
CC(=O)NCCCS(=O)(=O)O	15
CC(=O)O[C@]1(C(C)=O)CCC2C3C[C@H](C)C4=CC(=O)CC[C@]4(C)C3CC[C@@]21C (stereo not given in full)	15
COc1ccc(CCc2nc3cc(-c4c(C)noc4C)ccc3n2C[C@H](C)N2CCOCC2)cc1Cl	16
C=C1CCC2[C@](C)(CO)[C@H](O)CC[C@@]2(C)[C@@H]1C/C=C1/C(=O)OC[C@H]1O (stereo not given in full)	10
NC[C@H]1O[C@H](O[C@H]2[C@H](O)[C@@H](O[C@H]3O[C@H](CO)[C@@H](O)[C@H](N)[C@H]3O)[C@H](N)C[C@@H]2N)[C@H](N)C[C@@H]1O	23
O=[N+]([O-])c1cccc2c(Br)[nH]nc12	-13&-7
CCCCCCCC/C=C\CCCCCCCC(=O)NCCO	8
NC(=O)[C@@H](CCC(F)(F)F)N(Cc1ccc(-c2ncon2)cc1F)S(=O)(=O)c1ccc(Cl)cc1	0
CO/N=C(\C(=O)N[C@@H]1C(=O)N2C(C(=O)O)=C(COC(N)=O)CS[C@H]12)c1ccco1	15

Assay outcomes: PubChem BioAssay, Broad Institute
